rRNA inh HTS: inhibits bacterial ribosomal RNA function over humanized ribosomes | E. coli WT GFP vs humanized-ribosome RFP mutants, fluorescence, 24 h; active compounds read low; DMSO median 0, no signal -100 | GFP signal change (wild-type ribosome), % (concentration not given with the values) | hit rate 1.6% among 350,000;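 active = significant combined selectivity score with lowered wild-type GFP, culture density cut under 30%, mutant RFP and density less affected; inactive = any of these conditions unmet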; also: one replicate is shown; some compounds called inactive have numbers as strong as hits
rRNA inh HTS OD600: also measured in rRNA inh HTS; calls as there; OD600 change, %; measured here: OD600 growth;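 optical density of the mix in the first replicate; 0 = DMSO median and -100 = no signal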
rRNA inh HTS RFP: further read-out of rRNA inh HTS, marked with its call; RFP signal change, %; measured here: RFP humanized mutant strains;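 first replicate; 0 = DMSO median and -100 = no signal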
Starred values were filed as active, the others as inactive. This is a subset; the hit share may differ from the screen's.

Screens in order – rRNA inh HTS	rRNA inh HTS OD600	rRNA inh HTS RFP
COc1ccc2c3c(n(C)c2c1)[C@@H](CO)N(C(=O)C1CC1)CC31CN(C)C1
 : 1	-2	-2.2
Cc1ccsc1CNC(=O)C1(C)CCCN1CC(C)C (stereo unspecified)
 : 8	12	1.6
O=C(OCc1ccc(Br)cc1)c1cc([N+](=O)[O-])ccc1N1CCOCC1
 : -7	11	12
CCC(=O)Nc1ccc2c(c1)C(=O)N(C)[C@@H]1CC[C@@H](CC(=O)NCC3CC3)O[C@H]1CO2
 : 1	-2	1.4
O=C(Nc1cc(Cl)cc(Cl)c1)N[C@H]1CC[C@H](CCNS(=O)(=O)c2cccc(F)c2)O[C@H]1CO
 : -60	-79	-21
C[C@@H]1CN([C@H](C)CO)C(=O)c2cc(NC(=O)Cn3cnnn3)ccc2O[C@@H]1CN(C)Cc1ccc(Oc2ccccc2)cc1
 : -3	-9	7.2
COc1ccc(OC)c(CN2CCN(Cc3ccc(OC)c(OC)c3OC)CC2)c1
 : 12	19	-0.5
C[C@@H]1CN([C@@H](C)CO)C(=O)c2cc(-c3ccc(C#N)cc3)cnc2O[C@@H]1CN(C)Cc1cccnc1
 : 0	8	0.5
CC(C)NC(=O)Nc1ccc2c(c1)C(=O)N([C@@H](C)CO)C[C@@H](C)[C@H](CN(C)S(=O)(=O)c1cn(C)cn1)O2
 : 4	11	1.5
CC(C)NC(=O)Nc1ccc2c(c1)CC(=O)N([C@@H](C)CO)C[C@H](C)[C@@H](CN(C)Cc1ccc(C(=O)Nc3ccccc3N)cc1)O2
 : 2	12	-3.6
COc1ccc2c3c(n(C)c2c1)[C@H](CO)N(Cc1cc(F)ccc1F)CC31CN(C(C)=O)C1
 : 0	-7	-1.6
C[C@H](CO)N1C[C@H](C)[C@H](CN(C)S(=O)(=O)c2ccc(F)cc2)Oc2cc(C3=CCCC3)ccc2S1(=O)=O
 : 0	1	0.3
CO[C@H]1CN(C)C(=O)c2ccc(NC(=O)c3cc(C)on3)cc2OC[C@H](C)N(C(C)=O)C[C@@H]1C
 : 1	-2	-1.5
C[C@@H]1CN([C@H](C)CO)C(=O)c2cc(NC(=O)CCC(F)(F)F)ccc2O[C@@H](C)CCCCO[C@H]1CN(C)C(=O)Nc1cccc2ccccc12
 : -2	7	2.6
C[C@@H]1CCCCO[C@@H](CN(C)S(=O)(=O)c2ccc(F)cc2)[C@H](C)CN([C@H](C)CO)C(=O)c2cc(N(C)C)ccc2O1
 : -3	-3	-1.2
C[C@H](CO)N1C[C@H](C)[C@@H](CN(C)S(=O)(=O)c2cccs2)Oc2ccc(NC(=O)CCCCCC(=O)Nc3ccccc3N)cc2C1=O
 : -1	3	1.4
C[C@@H]1CN([C@H](C)CO)C(=O)Cc2cc(NC(=O)Cn3cnnn3)ccc2O[C@H]1CN(C)C(=O)NC1CCCCC1
 : 3	3	1.8
CCCCCCCCN1C(=O)[C@H](CC(=O)NCc2ccc(OC)c(OC)c2)C[C@@]2(C(=O)OCC)CCC=C12
 : 17	11	-1.4
C[C@@H]1CN([C@@H](C)CO)C(=O)c2cc(C#Cc3ccc(F)cc3)cnc2O[C@H]1CN(C)C(=O)c1ccccc1F
 : -3	-22	23
O=C(C[C@@H]1C[C@@H]2c3cc(NC(=O)CC4CC4)ccc3O[C@@H]2[C@H](CO)O1)NCCc1ccccc1
 : 1	3	-5.4
Cc1ccc(S(=O)(=O)Nc2ccc3c(c2)C(=O)N([C@H](C)CO)C[C@@H](C)[C@H](CN(C)C(=O)Nc2cccc4ccccc24)OCCCC[C@@H](C)O3)cc1
 : 3	15	3.1
CCCNC(=O)Nc1ccc2c(c1)C(=O)N(C)C[C@@H](OC)[C@@H](C)CN(C(C)=O)[C@H](C)CO2
 : 2	1	-1.9
O=C(Nc1ccc(F)cc1)N1CCCCN2[C@@H](CO)[C@H](c3ccc(C#CC4CC4)cc3)[C@@H]2C1
 : -59	-76	-13
COCCN1C(=O)CCC1(C)c1nnnn1-c1ccc2c(c1)OCCO2 (stereo unspecified)
 : 11	12	-4.2
Cc1ccc(-c2ccc3c(c2)O[C@@H](CN(C)C(=O)C2CC2)[C@@H](C)CN([C@H](C)CO)S3(=O)=O)cc1
 : 0	-9	2.3
COc1ccc(NC(=O)N(C)C[C@H]2Oc3ccc(NS(=O)(=O)c4c(C)noc4C)cc3C(=O)N([C@@H](C)CO)C[C@@H]2C)cc1
 : 0	8	1.2
C[C@H]1CCCCO[C@H](CN(C)Cc2ccccc2)[C@@H](C)CN([C@@H](C)CO)C(=O)c2cc(NC(=O)C3CCCCC3)ccc2O1
 : 3	1	-0.1
C[C@H](CO)N1C[C@H](C)[C@H](CN(C)Cc2ccccc2)Oc2ccc(NS(=O)(=O)c3ccccc3)cc2CC1=O
 : -2	-8	3.1
CC[C@H](NC(=O)[C@@H](Cc1ccccc1)NC(=O)[C@H]1O[C@@H](n2ccc(=O)[nH]c2=O)[C@H](O)[C@@H]1O)c1ccccc1
 : 16	15	1.7
C[C@H](CO)N1C[C@H](C)[C@@H](CN(C)Cc2ccncc2)Oc2ncc(-c3ccc(C#N)cc3)cc2C1=O
 : 3	9	-0.3
CCCCNC(=O)C1(C)CCCCN1C(=O)c1cncc(Br)c1 (stereo unspecified)
 : 4	8	-3.3
Cc1noc(C)c1NC(=O)N(C)C[C@@H]1Oc2ccc(NC(=O)CCC(F)(F)F)cc2CC(=O)N([C@@H](C)CO)C[C@H]1C
 : 2	12	-3.7
N#C[C@H]1[C@@H](c2ccccc2-c2cccc(F)c2)[C@@H](CO)N1C(=O)CN1CCOCC1
 : -5	10	-6.4
CC(=O)N1CC(=O)N2[C@@H](CO)[C@H](c3ccc(-c4ccccc4)cc3)[C@@H]2C1
 : 5	16	-3.0
Cc1cccc(S(=O)(=O)N2C[C@@H](O)COC[C@@H]3O[C@H](CC(=O)NCc4ccncn4)CC[C@H]32)c1
 : 1	-10	-4.3
CCNC(=O)Nc1ccc2c(c1)C(=O)N(C)[C@@H]1CC[C@H](CC(=O)NCCN3CCCC3)O[C@H]1CO2
 : 1	0	-0.7
C(=C\c1ccccc1)/CN1CCN(C(CCc2ccccc2)c2nnnn2C2CCCCC2)CC1 (stereo unspecified)
 : -6	-16	9.9
CC(C)C#Cc1ccc([C@H]2[C@@H](CO)N3CCCCN(CC4CC4)C[C@@H]23)cc1
 : 7	10	-2.2
CN1CCN(C(=O)C[C@@H]2C[C@H]3c4cc(NC(=O)Nc5ccccc5F)ccc4O[C@H]3[C@@H](CO)O2)CC1
 : -1	2	-2.0
O=C1CN(Cc2ccccc2)C[C@H]2[C@H](c3ccc(-c4ccccc4F)cc3)[C@@H](CO)N12
 : -14	-45	22
O=C(Cc1ccccn1)N1CC(=O)N2[C@H](CO)[C@@H](c3ccc(C#CC4CCCC4)cc3)[C@H]2C1
 : 1	-9	-0.6
O=C(OCc1ccccc1)N1Cc2ccnnc2CC1c1ccccc1-c1ccc(C(F)(F)F)cc1 (stereo unspecified)
 : -12	-14	-0.6
O=C(C[C@H]1C[C@@H]2c3cc(NC(=O)C4CCOCC4)ccc3O[C@@H]2[C@H](CO)O1)NCc1ccccc1F
 : 3	2	-2.2
CCNC(=O)C[C@@H]1CC[C@H]2[C@H](COc3ccc(NC(=O)C4CCOCC4)cc3C(=O)N2C)O1
 : 3	4	-0.2
O=C(C[C@H]1CC[C@H](NC(=O)NC2CCCCC2)[C@H](CO)O1)NCc1ccc(Cl)cc1
 : 0	5	-2.1

Brought forward from above: 3 entries, then new ones.
Screens in order – rRNA inh HTS	rRNA inh HTS OD600	rRNA inh HTS RFP
O=C(C[C@H]1C[C@@H]2c3cc(NC(=O)C4CCOCC4)ccc3O[C@@H]2[C@H](CO)O1)NCc1ccccc1F
 : 3	2	-2.2
CCNC(=O)C[C@@H]1CC[C@H]2[C@H](COc3ccc(NC(=O)C4CCOCC4)cc3C(=O)N2C)O1
 : 3	4	-0.2
O=C(C[C@H]1CC[C@H](NC(=O)NC2CCCCC2)[C@H](CO)O1)NCc1ccc(Cl)cc1
 : 0	5	-2.1
O=C(CC1CC1)N1CC(=O)N2[C@@H](CO)[C@H](c3ccc(/C=C/c4ccccc4)cc3)[C@@H]2C1
 : -4	-7	-0.6
COCCCNC1=C(C#N)C(=O)NC2(CCCC2)S1
 : -2	14	-3.2
C[C@@H]1CN([C@@H](C)CO)C(=O)c2cc(NC(=O)Nc3ccc(C(F)(F)F)cc3)ccc2O[C@@H](C)CCCCO[C@@H]1CN(C)S(=O)(=O)c1ccccc1
 : 1	3	-0.8
COc1ccc2c3c(n(C)c2c1)[C@@H](CO)NCC31CCN(Cc2cc(F)ccc2F)CC1
 : -3	3	1.4
O=C(c1ccccc1F)N1CC2(C1)[C@H](c1ccccc1)[C@@H](CO)N2CC1CCCC1
 : -3	-15	2.7
C[C@H]1CN([C@@H](C)CO)C(=O)c2cc(-c3cccnc3)cnc2O[C@H]1CN(C)C(=O)Cc1cccnc1
 : 4	1	-4.5
C[C@H]1CN([C@@H](C)CO)C(=O)c2cc(C3=CCCCC3)cnc2O[C@@H]1CN(C)Cc1ccccc1C(=O)O
 : 2	0	1.3
C[C@@H]1CN([C@@H](C)CO)C(=O)c2cc(NS(=O)(=O)c3ccccc3)ccc2O[C@@H]1CN(C)Cc1ccc(C(=O)O)cc1
 : 2	3	0.2
CO[C@H](CN(C)C(=O)C1CC1)[C@@H](C)CN(C(=O)Nc1ccc(C(F)(F)F)cc1)[C@@H](C)CO
 : -60	-78	-16
O=C(C[C@H]1CC[C@@H]2[C@H](COC[C@H](O)CN2Cc2cc(F)ccc2F)O1)N1CCc2ccccc2C1
 : -12	-29	0.0
C[C@H](CO)N1C[C@H](C)[C@H](CN(C)S(=O)(=O)c2cccs2)Oc2ccc(NS(C)(=O)=O)cc2CC1=O
 : -1	-4	0.2
C/C=C/c1cnc2c(c1)C(=O)N([C@@H](C)CO)C[C@@H](C)[C@H](CN(C)C(=O)NC1CCCC1)O2
 : -7	-4	-1.8
CC1CC(C)CN(C(C(=O)NC2CCCCC2)c2cc3ccccc3o2)C1 (stereo unspecified)
 : -11	-20	-13
C[C@@H]1CN([C@H](C)CO)C(=O)c2cc(NS(=O)(=O)c3cccs3)ccc2O[C@H]1CN(C)S(=O)(=O)c1ccccc1
 : -3	-7	0.6
Cc1noc(C)c1NC(=O)N(C)C[C@@H]1Oc2c(NC(=O)Nc3ccccc3)cccc2C(=O)N([C@@H](C)CO)C[C@@H]1C
 : 3	7	0.3

Two records drawn at random from the list so far, as already listed:
Screens in order – rRNA inh HTS	rRNA inh HTS OD600	rRNA inh HTS RFP
COCCCNC1=C(C#N)C(=O)NC2(CCCC2)S1
 : -2	14	-3.2
C[C@@H]1CN([C@@H](C)CO)C(=O)c2cc(NS(=O)(=O)c3ccccc3)ccc2O[C@@H]1CN(C)Cc1ccc(C(=O)O)cc1
 : 2	3	0.2

Next section.
Screens in order – rRNA inh HTS	rRNA inh HTS OD600	rRNA inh HTS RFP
C[C@@H]1CN([C@H](C)CO)C(=O)c2cc(NC(=O)Cc3ccccc3)ccc2O[C@@H]1CN(C)C(=O)NC1CCCCC1
 : 1	6	-3.0
C[C@H](CO)N1C[C@H](C)[C@@H](CN(C)Cc2ccccc2)Oc2ccc(NS(=O)(=O)c3ccccc3)cc2CC1=O
 : -2	-11	11
Cc1noc(C)c1S(=O)(=O)Nc1ccc2c(c1)CC(=O)N([C@@H](C)CO)C[C@H](C)[C@@H](CN(C)Cc1ccc(C(=O)O)cc1)O2
 : -3	-1	1.1
N#C[C@H]1[C@H](c2ccccc2)[C@@H](CO)N1S(=O)(=O)c1ccc(-c2ccccc2)cc1
 : -43	-61	4.2
Cc1ccc(S(=O)(=O)N[C@@H]2C=C[C@H](CC(=O)N3CCC(Cc4ccccc4)CC3)O[C@@H]2CO)cc1
 : 0	-32	32
CC(C)NC(=O)Nc1ccc2c(c1)C(=O)N([C@@H](C)CO)C[C@H](C)[C@H](CN(C)C(=O)CCC(F)(F)F)OCCCC[C@H](C)O2
 : 1	-2	-2.6
C/C=C/c1ccc2c(c1)[C@H]1[C@H](CCN1Cc1ccc(F)cc1)[C@H](CO)N2
 : 6	13	-2.2
O=S(=O)(c1cccc2ccccc12)N1CCC2CC1c1cc(-c3ccc4c(c3)OCO4)ccc12 (stereo unspecified)
 : 13	13	-2.3
CN(Cc1ccncc1)C(=O)[C@@H]1CCCN1C(=O)[C@@H]1CCCN1
 : 2	10	-2.4
COC(=O)C[C@H]1CC[C@@H]2[C@H](COc3ccc(NC(=O)c4ccccc4OC)cc3C(=O)N2C)O1
 : -3	-1	0.7
C[C@@H]1CN([C@@H](C)CO)C(=O)c2cccc(NC(=O)Nc3ccc(C(F)(F)F)cc3)c2O[C@H]1CN(C)Cc1ccc(C(F)(F)F)cc1
 : 6	8	-0.8
CN1CCN(C2CN(Cc3cn(Cc4cccc(C(F)(F)F)c4)nn3)S(=O)(=O)C2)CC1 (stereo unspecified)
 : 24	18	4.0
Cc1ccc(S(=O)(=O)N2C[C@H]3C(=O)C[C@@H](c4ccccc4)N(S(=O)(=O)c4ccc(C)cc4)[C@H]3C[C@H]2c2ccccc2Cl)cc1
 : 2	6	-4.2
Cc1noc(C)c1NC(=O)Nc1ccc2c(c1)C(=O)N([C@H](C)CO)C[C@@H](C)[C@H](CN(C)C(=O)C1CCCCC1)OCCCC[C@@H](C)O2
 : 0	9	1.7
C/C=C/c1ccc([C@H]2[C@@H](CO)N(C(C)=O)[C@@H]2CNC(=O)c2ccncc2)cc1
 : -1	3	4.2

Quoted from the listing.
Under rRNA inh HTS OD600, Cc1ccc(S(=O)(=O)N[C@@H]2C=C[C@H](CC(=O)N3CCC(Cc4ccccc4)CC3)O[C@@H]2CO)cc1 has the entry -32
Under rRNA inh HTS RFP, CN(Cc1ccncc1)C(=O)[C@@H]1CCCN1C(=O)[C@@H]1CCCN1 has the entry -2.4
Under rRNA inh HTS, CC(C)NC(=O)Nc1ccc2c(c1)C(=O)N([C@@H](C)CO)C[C@H](C)[C@H](CN(C)C(=O)CCC(F)(F)F)OCCCC[C@H](C)O2 has the entry 1
